Screens from PubChem.
rRNA inh HTS – inhibits bacterial ribosomal RNA function over humanized ribosomes; E. coli WT GFP vs humanized-ribosome RFP mutants, fluorescence, 24 h; hits give low values; DMSO median 0, no signal -100; hit rate 1.6% among 350,000; GFP signal change (wild-type ribosome), % (concentration not given with the values); AID 720706;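 active = significant combined selectivity score with lowered wild-type GFP, culture density cut under 30%, mutant RFP and density less affected; inactive = any of these conditions unmet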; note: one replicate is shown; some compounds called inactive have numbers as strong as hits
AF4-AF9 inh – blocks AF4 peptide binding to human AF9. P42568. AlphaScreen, biotin-AF4 peptide binding to FLAG-AF9. inhibition, % at 10 µM. hit rate 0.47% among 350,000. AID 651704;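 active = every replicate reaching a set inhibition limit, whatever the replicate mean, cut at about 25% in these data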;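 note: 0% = plate neutral control median and 100% = total signal loss; the record names both 10 and 1 µM as test concentration; the first replicate is given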
Target sequence (P42568 whole entry, looked up): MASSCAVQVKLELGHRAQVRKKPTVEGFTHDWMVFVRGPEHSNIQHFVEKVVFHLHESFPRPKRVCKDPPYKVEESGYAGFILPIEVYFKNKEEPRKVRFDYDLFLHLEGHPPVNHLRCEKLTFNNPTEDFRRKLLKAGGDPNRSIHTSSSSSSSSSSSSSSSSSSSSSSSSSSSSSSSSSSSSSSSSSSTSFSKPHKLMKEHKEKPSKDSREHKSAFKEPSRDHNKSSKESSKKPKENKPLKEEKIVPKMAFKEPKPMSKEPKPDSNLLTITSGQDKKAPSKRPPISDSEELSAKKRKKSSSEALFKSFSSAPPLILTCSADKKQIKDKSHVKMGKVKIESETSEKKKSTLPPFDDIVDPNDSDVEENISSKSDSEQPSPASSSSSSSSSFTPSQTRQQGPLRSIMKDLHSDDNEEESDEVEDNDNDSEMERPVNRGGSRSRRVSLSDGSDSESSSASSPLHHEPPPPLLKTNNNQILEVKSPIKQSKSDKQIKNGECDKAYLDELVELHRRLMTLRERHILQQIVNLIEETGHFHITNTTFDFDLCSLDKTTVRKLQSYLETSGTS
rRNA inh HTS OD600 – also measured in rRNA inh HTS; calls as there; OD600 change, %; measured here: OD600 growth;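 optical density of the mix in the first replicate; 0 = DMSO median and -100 = no signal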
rRNA inh HTS RFP – further read-out of rRNA inh HTS, marked with its call; RFP signal change, %; measured here: RFP humanized mutant strains;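 first replicate; 0 = DMSO median and -100 = no signal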
Numbers without * were called inactive; & = joins results of further samples. These rows are one share of the data. The share of hits here may be higher or lower than overall.

cpd	smiles	rRNA inh HTS	rRNA inh HTS OD600	rRNA inh HTS RFP	AF4-AF9 inh
1	COCC#Cc1ccc2c(c1)O[C@H](CN(C)C(=O)COC)[C@@H](C)CN([C@H](C)CO)S2(=O)=O	0	6	0.6	-2.2
2	CCOC(=O)C1=CCN(S(=O)(=O)c2ccc(C)cc2)C1c1ccccc1F (configuration not stated)	-25	-26	0.9	0.3
3	CC(=O)Nc1ccc(-c2ccnc3c2CC(C)(C(=O)Nc2ccc(Cl)cc2)O3)cc1 (configuration not stated)	-36	-53	-5.6	1.7
4	C[C@H](CO)N1C[C@H](C)[C@H](CN(C)Cc2cccc(C(=O)O)c2)Oc2ncc(C#CCN(C)C)cc2C1=O	6	8	-2.6	2.8
5	CC(C)NC(=O)N(C)C[C@H]1Oc2ccc(NS(=O)(=O)c3ccccc3)cc2CC(=O)N([C@H](C)CO)C[C@@H]1C	2	2	0.2	-1.6
6	C[C@H]1CCCCO[C@@H](CN(C)C(=O)NC2CCCCC2)[C@@H](C)CN([C@@H](C)CO)C(=O)c2cc(NC(=O)Cc3ccccc3)ccc2O1	3&0	4&-5	9.8&1.9	1.3&3.4
7	C#CCOCCOCCOCCNc1nc(N2CCN(C(=O)Cn3cc(CCO)nn3)CC2)nc(N2CCN(C(=O)Cn3cc(CCCCN)nn3)CC2)n1	-4	-15	0.8	-2.5
8	O=C(COc1ccc(Br)cc1)NNC(=O)c1cc(S(=O)(=O)N2CCOCC2)ccc1Cl	-19*	-12*	2.1*	-1.3
9	COc1cccc(NC(=O)N(C)C[C@@H]2OCc3ccccc3-c3c(n(C)c4ccccc34)C(=O)N([C@H](C)CO)C[C@H]2C)c1	4	2	-1.4	3.9
10	COc1ccc(CN(C)C[C@H]2Oc3ccc(NC(=O)Nc4ccc5c(c4)OCO5)cc3C(=O)N([C@H](C)CO)C[C@@H]2C)cc1	4	6	-0.1	2.7
11	CCOC(=O)c1sc2nc(OCc3cccnc3)cc(C)c2c1N	-4	-7	4.5	-2.2
12	C[C@H](CO)N1C[C@H](C)[C@@H](CN(C)Cc2ccncc2)Oc2cc(C3=CCCCC3)ccc2S1(=O)=O	-23	-37	5.6	10.0
13	O=C(C[C@@H]1CC[C@@H]2NC[C@H](O)COC[C@H]2O1)N1CCc2ccccc2C1	3	4	2.4	-9.2
14	C[C@H](CO)N1C[C@H](C)[C@@H](CN(C)CC2CCCCC2)Oc2c(NS(=O)(=O)c3ccc(Cl)cc3)cccc2C1=O	0	4	-0.8	1.5
15	C[C@@H]1CN([C@@H](C)CO)C(=O)Cc2cc(NC(=O)Nc3ccccc3)ccc2O[C@H]1CN(C)Cc1ccc(Oc2ccccc2)cc1	4	6	0.4	2.5
16	COc1ccc2c3c([nH]c2c1)[C@H](CO)NCC31CCN(Cc2ccccc2)CC1	1	11	1.5	-9.1
17	O=C(CC(F)(F)F)N1C[C@H]2[C@@H](c3ccccc31)[C@H](CO)N2C(=O)C1CCCC1	3	0	0.3	-0.6
18	O=C(Nc1ccc(Oc2ccccc2)cc1)c1csc([C@@H]2O[C@H](CO)[C@H](O)[C@H](O)[C@H]2O)n1	-7	2	3.3	-0.1
19	CC(C)NC(=O)N(C)C[C@H]1Oc2cc(-c3ccccc3)ccc2S(=O)(=O)N([C@H](C)CO)C[C@H]1C	-4	1	1.0	-3.3
20	O=C(C[C@H]1C[C@@H]2c3cc(NS(=O)(=O)c4ccccc4)ccc3O[C@@H]2[C@@H](CO)O1)NCC1CC1	-6	-28	7.7	-4.0
21	CC=Cc1ccc2n(c1=O)C[C@H]1[C@H](CO)[C@@H](C(=O)NCCCN(C)C)[C@@H]2N1Cc1nccs1 (mixture of isomers)	1	7	-2.9	-2.9
22	CO[C@H]1CN(C)C(=O)c2ccc(NC(C)=O)cc2OC[C@@H](C)N(C(=O)C2CCC2)C[C@H]1C	2	3	-2.2	1.3
23	C[C@@H]1CN([C@H](C)CO)S(=O)(=O)c2ccc(C#CC3CC3)cc2O[C@@H]1CN(C)Cc1ccc(F)cc1	-20	-38	11	5.3
24	CC(C)NC(=O)N(C)C[C@H]1OCCCC[C@@H](C)Oc2ccc(NC(=O)Nc3ccc(C(F)(F)F)cc3)cc2C(=O)N([C@@H](C)CO)C[C@H]1C	0	6	-2.6	0.2
25	Cc1ccc(S(=O)(=O)Nc2ccc3c(c2)CC(=O)N([C@@H](C)CO)C[C@@H](C)[C@@H](CN(C)S(=O)(=O)c2cn(C)cn2)O3)cc1	5	5	-1.1	0.3
26	OC[C@@H]1[C@@H](c2ccc(-c3cccc(F)c3)cc2)[C@H]2CN(CCC(F)(F)F)CCCCN12	-59	-75	-13	14
27	COc1ccc(S(=O)(=O)Nc2ccc3c(c2)C(=O)N([C@@H](C)CO)C[C@H](C)[C@@H](CN(C)S(=O)(=O)c2ccc(C)cc2)OCCCC[C@@H](C)O3)cc1	0	3	0.3	-1.3
28	COc1cccc(NC(=O)N2[C@@H]3CNC[C@H]2C3c2ccc(-c3cccc(C(=O)N(C)C)c3)cc2)c1 (some centres not stated)	4&3	12&4	4.0&1.7	4.0&4.5
29	O=C(C[C@@H]1CC[C@@H]2[C@H](COC[C@@H](O)CN2Cc2ccccc2F)O1)N[C@@H]1CCN(Cc2ccccc2)C1	0	-6	-2.8	2.4
30	O=C(c1ccccc1)c1sc(Nc2ccc3c(c2)OCO3)nc1-c1ccccc1	-10	-1	4.1	8.9
31	C[C@@H]1CCCCO[C@H](CN(C)Cc2ccc(Cl)c(Cl)c2)[C@@H](C)CN([C@H](C)CO)C(=O)c2cc(NC(=O)CCCCCC(=O)Nc3ccccc3N)ccc2O1	3	-5	3.5	1.4
32	CC(C)NC(=O)Nc1ccc2c(c1)C(=O)N([C@H](C)CO)C[C@@H](C)[C@H](CN(C)Cc1ccc(C(F)(F)F)cc1)OCCCC[C@@H](C)O2	3	-5	0.5	6.9
33	Cc1ccc(S(=O)(=O)Nc2ccc3c(c2)C(=O)N([C@@H](C)CO)C[C@@H](C)[C@@H](CN(C)Cc2ccc(C(F)(F)F)cc2)OCCCC[C@@H](C)O3)cc1	-2	-7	2.5	3.5
34	COc1ccc(C#Cc2ccc([C@@H]3[C@@H](CO)N4C(=O)CN(C(=O)c5ccc(F)cc5)C[C@H]34)cc2)cc1	-4	-25	13	-0.7
35	CCCN(C)C[C@@H]1Oc2cc(C#CC3CC3)ccc2S(=O)(=O)N([C@H](C)CO)C[C@@H]1C	2	0	1.7	0.9
36	CC(OC(=O)[C@@H](NC(=O)OCc1ccccc1)C(C)C)C(=O)Nc1ccc(N2CCOCC2)cc1 (some centres not stated)	-1	3	-1.3	0.3
37	O=C(C1CC1)N1[C@@H](CO)[C@@H](c2ccccc2)C12CN(Cc1cncnc1)C2	4	6	-0.2	-2.0
38	C[C@H](CO)N1C[C@H](C)[C@@H](CN(C)Cc2ccccn2)Oc2cc(C#CCN(C)C)ccc2S1(=O)=O	-3	-1	-0.1	1.6
39	C[C@@H]1CN([C@H](C)CO)C(=O)c2cc(NC(=O)Cc3cn(C)c4ccccc34)ccc2O[C@@H]1CN(C)C(=O)Nc1ccc(F)cc1	-3	3	6.1	3.5
40	CC=Cc1ccc2n(c1=O)C[C@H]1[C@H](CO)[C@@H](C(=O)NCc3ccccc3F)N(CCC)[C@@H]21 (mixture of isomers)	-5	-15	2.8	2.7
41	C[C@@H]1CN([C@H](C)CO)C(=O)c2cc(NC(=O)CCCN(C)C)ccc2O[C@@H](C)CCCCO[C@H]1CN(C)S(=O)(=O)c1ccccc1	4	8	-0.6	4.1
42	C=C1C(=O)[C@]23C[C@H]1CC[C@H]2[C@]1(C)[C@@H](OC(C)=O)CC[C@@](C)(C(=O)O)[C@H]1C[C@@H]3O	17	8	1.7	-4.2
43	CC(C)CC#Cc1ccc([C@H]2[C@H](CO)N3CCCCN(C(=O)NC4CCCC4)C[C@@H]23)cc1	-59	-74	-10	6.0
44	C[C@H]1CN([C@@H](C)CO)C(=O)c2cc(NS(=O)(=O)c3ccccc3)ccc2O[C@H]1CN(C)Cc1ccc(C(F)(F)F)cc1	1	-8	6.3	1.1
45	CCN1[C@@H]2c3ccc(-c4ccc(F)cc4)c(=O)n3C[C@@H]2[C@@H](CO)[C@@H]1C(=O)NCCc1cn(C)cn1	0	0	-2.3	1.9
46	Cc1noc(C)c1NC(=O)N(C)C[C@H]1Oc2ccc(NC(=O)Nc3ccc(F)cc3)cc2CC(=O)N([C@H](C)CO)C[C@H]1C	0	-9	1.4	-1.5
47	CO[C@@H]1CN(C)C(=O)c2cc(NC(=O)Nc3c(C)noc3C)ccc2OC[C@H](C)NC[C@H]1C	2	8	-3.4	-2.3
48	C[C@H](CO)N1C[C@H](C)[C@H](CN(C)Cc2ccc(C(=O)O)cc2)Oc2ccc(NC(=O)c3ccncc3)cc2C1=O	8	9	1.7	-2.1
49	CC1(Cc2cc(Cl)ccc2C(F)(F)F)C(=O)Nc2cc(-c3ccccc3Cl)ccc21 (configuration not stated)	9	1	-1.2	-1.4
50	C[C@@H](O)C#Cc1ccc([C@@H]2[C@@H](CO)N3CCCCN(C(=O)c4ccncc4)C[C@H]23)cc1	3	7	-0.9	-2.6
51	CC(=O)N(C)C[C@@H]1Oc2ncc(C#Cc3ccccc3)cc2C(=O)N([C@H](C)CO)C[C@@H]1C	2	7	-1.3	-2.4
52	C[C@@H]1CCCCO[C@@H](CN(C)C(=O)Nc2ccc3c(c2)OCO3)[C@@H](C)CN([C@H](C)CO)C(=O)c2cc(NC(=O)Nc3ccccc3)ccc2O1	6	5	-0.5	6.1
53	C[C@@H]1CCCCO[C@@H](CN(C)S(=O)(=O)c2ccc(F)cc2)[C@@H](C)CN([C@H](C)CO)C(=O)c2cc(NC(=O)CCCCCC(=O)Nc3ccccc3N)ccc2O1	1	2	-0.4	-4.4
54	CCCC(=O)Nc1ccc2c(c1)C(=O)N(C)[C@H]1CC[C@@H](CC(=O)NCCc3ccncc3)O[C@H]1CO2	1	-4	-1.3	-1.8
55	CCCc1nc2ccc(C)cn2c1Cc1cccc(Cl)c1	-5	-29	-2.3	-1.6
56	Cc1ccc(S(=O)(=O)Nc2ccc3c(c2)C(=O)N([C@@H](C)CO)C[C@@H](C)[C@H](CN(C)S(=O)(=O)c2ccc(C)cc2)OCCCC[C@@H](C)O3)cc1	-4	0	4.3	-7.8
57	CCCNC(=O)C1(C)CCCN(C(=O)c2ccc(OC(F)F)cc2)C1 (configuration not stated)	10	21	1.2	-3.5
58	C[C@H](O)[C@@H]1CN2CCc3c([nH]c4ccccc34)[C@@H]2C[C@@H]1N(C)C(=S)Nc1ccc(C#N)cc1	1	2	-1.5	7.8
59	O=C(O)C[C@H]1C=C[C@H](NC(=O)CCN2CCCCC2)[C@@H](CO)O1	-1	1	1.2	-3.5
60	O=C(C[C@@H]1C[C@H]2c3cc(NC(=O)c4cccnc4)ccc3O[C@H]2[C@H](CO)O1)NCc1ccccc1F	-3	0	-0.8	0.8

Profiles as entered above. Order of screens: rRNA inh HTS | rRNA inh HTS OD600 | rRNA inh HTS RFP | AF4-AF9 inh
Cc1ccc(S(=O)(=O)Nc2ccc3c(c2)C(=O)N([C@@H](C)CO)C[C@@H](C)[C@H](CN(C)S(=O)(=O)c2ccc(C)cc2)OCCCC[C@@H](C)O3)cc1 in the list: -4 | 0 | 4.3 | -7.8
O=C(C[C@@H]1C[C@H]2c3cc(NC(=O)c4cccnc4)ccc3O[C@H]2[C@H](CO)O1)NCc1ccccc1F in the list: -3 | 0 | -0.8 | 0.8
Cc1noc(C)c1NC(=O)N(C)C[C@H]1Oc2ccc(NC(=O)Nc3ccc(F)cc3)cc2CC(=O)N([C@H](C)CO)C[C@H]1C in the list: 0 | -9 | 1.4 | -1.5
CC1(Cc2cc(Cl)ccc2C(F)(F)F)C(=O)Nc2cc(-c3ccccc3Cl)ccc21 (configuration not stated) in the list: 9 | 1 | -1.2 | -1.4

Remaining list, next part.
cpd	smiles	rRNA inh HTS	rRNA inh HTS OD600	rRNA inh HTS RFP	AF4-AF9 inh
61	C[C@@H]1CN([C@H](C)CO)C(=O)Cc2cc(N(C)C)ccc2O[C@@H]1CN(C)Cc1ccccc1	-3	0	0.6	3.5
62	COc1ccc(S(=O)(=O)N(C)C[C@@H]2OCCCC[C@H](C)Oc3ccc(NC(=O)Nc4ccc(C(F)(F)F)cc4)cc3C(=O)N([C@@H](C)CO)C[C@H]2C)cc1	-1	-2	-2.4	-13
63	CC(=O)Nc1ccc2c(c1)C(=O)N(C)[C@@H]1CC[C@@H](CC(=O)NCc3ccccc3)O[C@@H]1CO2	2	-3	-0.9	-0.5
64	CO[C@@H]1CN(C)C(=O)c2ccc(NS(=O)(=O)c3cn(C)cn3)cc2OC[C@@H](C)NC[C@H]1C	3	2	-1.2	-2.5
65	CO[C@@H](CN(C)C(=O)C1CCOCC1)[C@@H](C)CN([C@@H](C)CO)S(=O)(=O)c1ccccc1	10	18	1.8	-1.1
66	C[C@H](CO)N1C[C@H](C)[C@@H](CN(C)Cc2ccc(F)cc2)Oc2cc(C#CC(C)(C)O)ccc2S1(=O)=O	-23	-60	21	2.0
67	Cc1cc2nc(-c3cccc(Br)c3)c(Cc3cccc(Cl)c3)n2c(C)c1Br	-8	-13	-1.0	-0.7

Screen by screen, from the results shown:
rRNA inh HTS OD600 for entries 25 to 31 → 5, -75, 3, 12&4, -6, -1, -5
rRNA inh HTS for entries 25 to 31 → 5, -59, 0, 4&3, 0, -10, 3
